High-throughput results as filed in PubChem BioAssay.
ALR inh: blocks human ALR sulfhydryl oxidase activity; P55789; purified ALR, DTT oxidation, H2O2 HRP-luminol luminescence; inhibition, % (concentration not given with the values); 290,000 compounds, 3.8% hits;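 active means mean and each replicate at 75% or more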;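 further: stock transfer was 7.5 nL into about 7.5 µL; 0% = neutral wells and 100% = wells with inactivated enzyme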
Target sequence (P55789 whole entry, looked up): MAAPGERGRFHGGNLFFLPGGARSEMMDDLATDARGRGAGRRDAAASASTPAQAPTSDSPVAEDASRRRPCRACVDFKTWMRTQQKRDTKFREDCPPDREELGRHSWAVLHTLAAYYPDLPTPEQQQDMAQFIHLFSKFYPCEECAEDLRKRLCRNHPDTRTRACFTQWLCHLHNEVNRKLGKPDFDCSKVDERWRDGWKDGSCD
FGF22 binding: binders of recombinant human FGF22 by thermal shift; AID 651658; 340,000 compounds, 1.5% hits; calls only at 9.99 µM; SYPRO orange fluorescence; percent of sucrose octasulfate shift, DMSO zero; Q9HCT0;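 active means melting point raised past a set limit in the mean and every replicate; three in four hits are not shown here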
Target sequence (Q9HCT0 whole entry, looked up): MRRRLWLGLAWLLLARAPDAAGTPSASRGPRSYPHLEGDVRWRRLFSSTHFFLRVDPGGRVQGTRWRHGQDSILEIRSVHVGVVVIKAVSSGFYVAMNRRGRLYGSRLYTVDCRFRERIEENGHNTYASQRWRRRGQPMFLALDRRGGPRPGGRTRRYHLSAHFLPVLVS
UCH37 DUB inh: blocks the human deubiquitinase UCH37 | AID 588478 | purified proteasome/UCH37, Ub-AMC cleavage fluorescence | 330,000 compounds, 0.33% hits | inhibition, % (test concentration not listed) | Q9Y5K5;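 active means mean of two replicates above 20%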;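 further: 0% = compound-free wells with enzyme and 100% = wells lacking proteasome; stock transfer was 100 nL into about 20 µL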
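Schedule: 30 min plus 25 min, room temperature / Material: human UCH37 within purified proteasomes / Technique: AMC fluorescence intensity at 355/460 nm / Buffer or medium: pH 7.4 Tris-HCl (50 mM) with ovalbumin, ATP-MgCl2, DTT / Controls: wells without proteasome as full block, compound-free enzyme plus substrate as uninhibited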
Ecoli growth: E. coli growth inhibition; Escherichia coli growth, OD600, 23 h; active compounds read low; OD600 absorbance (no concentration beside the values); 330,000 compounds, 0.21% hits;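 active means OD600 absorbance below the run mean of sample wells minus 3.6 SD, in any replicate, cut at about 0.56 in these data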;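 further: stock transfer was 300 nL into about 60 µL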
Beta2AR agonist: agonists of human beta-2 adrenergic receptor inducing internalization; 340,000 compounds, 0.43% hits; Am2.2-beta2AR cells, FAP receptor internalization, flow cytometry; reference of the scale not given here; response, % (no concentration beside the values); AID 504454; P07550;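 active means response above a set limit, near 3 SD of response in nonfluorescent compounds, cut at about 42% in these data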;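 further: stock transfer was 100 nL into about 11 µL; a reference agonist was the positive control; negative values mostly stem from fluorescent compounds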
Target sequence (P07550 whole entry, looked up): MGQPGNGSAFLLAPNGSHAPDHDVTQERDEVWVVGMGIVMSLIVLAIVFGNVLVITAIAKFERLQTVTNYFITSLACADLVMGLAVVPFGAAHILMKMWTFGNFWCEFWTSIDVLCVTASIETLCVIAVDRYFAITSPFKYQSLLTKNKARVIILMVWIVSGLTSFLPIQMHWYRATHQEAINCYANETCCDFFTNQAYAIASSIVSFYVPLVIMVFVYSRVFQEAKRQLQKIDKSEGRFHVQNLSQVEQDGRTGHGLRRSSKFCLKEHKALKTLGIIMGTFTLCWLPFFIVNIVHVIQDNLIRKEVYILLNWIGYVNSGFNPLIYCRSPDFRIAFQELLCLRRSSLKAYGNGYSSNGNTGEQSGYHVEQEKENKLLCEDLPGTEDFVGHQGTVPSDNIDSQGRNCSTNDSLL
HNF4A DNA FP: change in binding of human HNF4 alpha to DNA. HNF4a-FITC DNA binding, fluorescence polarization, 1 h. activity change, % at 10 µM. 360,000 compounds, 0.3% hits; in the data active means activity change above about 30%, passing the limit was not always enough;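 further: controls were the assay level and a saturating level of protein; the project sought stronger binding though the title names inhibitors; some compounds called inactive have numbers as strong as hits; positive values seem to mean higher polarization but the record does not say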
rRNA inh HTS: inhibitors of bacterial rRNA selective over humanized ribosomes | E. coli WT GFP vs humanized-ribosome RFP mutants, fluorescence, 24 h; active compounds read low; DMSO median 0, no signal -100 | GFP signal change (wild-type ribosome), % (test concentration not listed) | 350,000 compounds, 1.6% hits | AID 720706;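 active means significant combined selectivity score with lowered wild-type GFP, culture density cut under 30%, mutant RFP and density less affected; inactive means any of these conditions unmet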; further: one replicate is shown; some compounds called inactive have numbers as strong as hits
rRNA inh HTS OD600: recorded beside rRNA inh HTS, whose call it bears; OD600 change, %; measured here: OD600 growth;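 optical density of the mix in the first replicate; 0 = DMSO median and -100 = no signal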
rRNA inh HTS RFP: recorded beside rRNA inh HTS, whose call it bears; RFP signal change, %; measured here: RFP humanized mutant strains;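 first replicate; 0 = DMSO median and -100 = no signal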
Starred values were filed as active, the others as inactive; i = inactive; . = no result given.

SMILES	ALR inh	FGF22 binding	UCH37 DUB inh	Ecoli growth	Beta2AR agonist	HNF4A DNA FP	rRNA inh HTS	rRNA inh HTS OD600	rRNA inh HTS RFP
O=C(c1ccc2c(c1)OCO2)N1CCc2ccccc2C1	2	.	1.2	0.69	-12	-0.6	.	.	.
CCCCn1c(N)c(N(CCOC)C(=O)c2cc(-c3ccncc3)nc3ccccc23)c(=O)[nH]c1=O	-8	i	-0.2	0.67	-1	0.5	4	0	-0.6
O=C1c2ccc3c4c(ccc(c24)C(=O)N1CCCCO)C(=O)N(CCCCO)C3=O	.	i	5.5	0.67	10	-23	-36	-68	-4.7
CCCSCCCNC(=O)c1ccccc1NC(=O)C1=CSCCO1	-2	i	5.7	0.74	28	1.0	-1	4	-2.8
CCN1C(=O)[C@H]2[C@@H](c3ccc(C)cc3)N3C(=O)N(c4cccc(F)c4)C(=O)[C@@]3(CC)[C@H]2C1=O	3	i	2.4	.	5	-4.1	4	5	3.5
CCCCc1nc2cc(C(=O)N3CCCCC3COC)ccc2o1 (stereo unspecified)	-15	i	-1.5	0.64	-19	-1.3	10	8	1.3
COC(=O)c1c(C)[nH]c(C(C)=O)c1C	-11	.	0.4	0.66	-4	-1.4	.	.	.
COc1ccc(NC(=S)N(CCN2CCOCC2)Cc2cc3cc4c(cc3[nH]c2=O)OCCO4)cc1	-11	i	-34	0.69	1	4.1	16	9	2.0
COc1ccc(C(=O)c2coc3ccc(O)c(CN4CCOCC4)c23)cc1	10	i	1.5	0.65	-17	-2.0	-10	-16	0.0
CCc1nc(SCc2ccc(Br)cc2)n[nH]1	-1	i	1.7	0.7	-20	3.9	-8	-8	-3.8
COc1cccc(C(=Cc2ccc([N+](=O)[O-])cc2)C(=O)O)c1	.	i	.	.	.	0.0	-3	-3	-2.5
CC(C)C[C@@H](COCc1ccc(C(F)(F)F)cc1)N1CCN(C(=O)c2ccc(C(F)(F)F)cc2)CCC1=O	.	i	.	.	.	2.6	-6	-6	-3.9
COc1cc(Cl)c(C)cc1NC(=O)CSc1nnc(CN2CCCC2)o1	-8	i	4.0	0.72	2	-0.5	11	-3	-0.8
O=C(c1ccncc1)N1CCN(CCc2ccccc2)CC1	3	i	4.0	0.65	-1	-2.9	28	18	1.9
O=C(Cc1ccc(-n2c(=S)[nH]c3ccccc3c2=O)cc1)N1CCC(N2CCCCC2)CC1	67	.	2.9	0.75	-33	4.2	.	.	.
O=C(CSc1nc2ccccc2o1)NCCOc1ccccc1	-10	.	2.1	0.71	-14	2.5	.	.	.
COC(=O)NNC(=O)COc1cc(C)ccc1C	-7	i	3.9	0.68	-1	2.3	11	3	-0.3
COc1ccc(/C=N/N2C(=O)C3C4C=CC(CC4)C3C2=O)c(OC)c1 (stereo unspecified)	-3	i	.	.	-9	-0.7	10	10	-0.7
CCOc1ccc(N(C)S(=O)(=O)c2cc(-c3cc(C)no3)ccc2OC)cc1	-14	i	-0.3	0.72	-6	1.9	-37*	-31*	-4.0*
CC(C)CC1C(C#N)=C(N)SC(N)=C1C#N	9	.	4.5	0.7	0	107	-16	-21	-1.9
COc1cc2c(cc1OC)CN(C1CCC(C)CC1)CC2 (stereo unspecified)	-7	i	3.7	0.71	-1	-1.0	8	10	2.7
Cc1onc(-c2ccccc2)c1C(=O)OCC(=O)c1ccc(F)cc1	.	i	.	.	.	-0.1	-9	-39	-11
CNC(=O)COC(=O)c1nc(-n2nc(C)cc2C)ccc1Cl	-1	.	2.3	0.69	5	-0.9	.	.	.
CCc1nc(SCc2ccccc2)n[nH]1	1	i	-1.6	0.66	2	-3.0	15	10	1.5
O=C(CNS(=O)(=O)c1c(Cl)cccc1Cl)OCC(=O)c1ccc[nH]1	-21	i	0.8	0.68	-7	-3.1	5	11	1.5
CN(CCC#N)S(=O)(=O)c1ccc2c(c1)c(=O)n(C)c(=O)n2C	-7	.	0.7	0.71	-4	2.0	.	.	.
COc1ccc(S(=O)(=O)N2CCc3ccccc32)cc1[N+](=O)[O-]	5	i	-0.8	0.69	-3	2.2	2	-1	0.1
COc1cc([N+](=O)[O-])ccc1NC(=O)CCCOc1ccccc1	-5	.	1.7	0.7	3	-3.0	.	.	.
COc1cc(/C=C(\C#N)C(=O)NCC2CCCO2)ccc1OC(C)C (stereo unspecified)	6	.	4.8	0.68	10	0.7	.	.	.
COc1ccc(NC(=O)c2cc(S(=O)(=O)N3CCCC3)ccc2OC)cc1	-5	i	2.8	0.69	0	-1.1	-5	-1	-2.3
CC(C)N(Cc1ccccc1)C(=O)CCc1ccccc1	-11	i	2.2	0.7	10	1.1	1	2	1.3
O=C(NCCCN1CCOCC1)NC12CC3CC(CC(C3)C1)C2	-1	.	-5.7	0.72	-2	-2.0	.	.	.
COC(=O)c1c(NC(=O)COC(=O)c2ccc(O)cc2)sc2c1CCCCC2	-3	i	-30	0.74	0	0.5	-16	-2	4.7
O=c1[nH]c2ccccc2cc1CN(c1ccccc1)S(=O)(=O)c1ccccc1	-2	i	-4.7	0.71	-9	-1.1	.	.	.
O=C(NCCS(=O)(=O)N1CCN(Cc2ccccc2)CC1)c1ccccc1	-5	i	1.7	0.65	7	1.0	1	1	-1.8
C=CCSc1nnc(NC(=O)CCNC(=O)c2ccco2)s1	1	i	2.8	0.65	0	-4.3	-7	-16	12
CCOc1ccc(NCCC(=O)c2ccc3c(c2)OCO3)cc1	27	i	1.0	0.67	4	9.5	-21	-4	-2.7
CCOC(=O)c1ccccc1N1C(=O)C2Sc3[nH]c(=O)sc3C(/C=C/c3ccccc3)C2C1=O (stereo unspecified)	3	i	3.9	0.67	2	21	15	1	10
Cc1ccc(N=c2sc(C)c(C)n2C)cc1	99*	.	1.3	0.67	-6	2.4	.	.	.
COc1ccc(CCNC(=O)CCCCCN2C(=O)c3ccccc3C2=O)cc1OC	0	i	0.6	0.67	-11	-1.4	-1	4	-3.7
CC(Sc1n[nH]c(-c2ccccc2F)n1)C(=O)Nc1ccc(S(N)(=O)=O)cc1 (stereo unspecified)	-3	i	-1.0	0.69	4	-2.2	1	7	-2.3
CCCOc1ccc(S(=O)(=O)n2cc(F)c(=O)[nH]c2=O)cc1	-6	i	3.0	0.69	-4	-1.2	-1	6	-5.0
COc1ccc2nc(SCC(=O)Nc3ccc(S(=O)(=O)Nc4nccc(C)n4)cc3)[nH]c2c1	-5	.	0.5	0.66	9	-0.7	.	.	.
Cc1ccc(Nc2nc(N)nc(COC(=O)c3ccc(Br)o3)n2)cc1	.	i	3.4	0.67	-5	0.5	-20	-23	-1.8
Fc1ccc2nc(C3CCN(Cc4nc(CC5CC5)no4)CC3)[nH]c2c1	27	i	4.6	0.71	2	-0.8	-4	6	0.0
COc1ccc(CNC(=O)c2cccc(S(=O)(=O)N3CCN(C)CC3)c2)cc1	-7	i	2.3	0.68	0	2.8	11	12	0.0
Cc1ccc(CN2C(=O)c3ccccc3NC23CCN(Cc2ccccc2)CC3)cc1	-7	i	-104	0.62	-2	-6.4	-24	-7	25
COc1ccc(C2C(C(C)=O)=C(O)C(=O)N2CCc2c[nH]c3ccccc23)cc1OC (stereo unspecified)	-16	.	11	0.74	2	1.1	.	.	.
Cc1ccc(S(=O)(=O)NCCC(=O)OCn2nnc3ccccc3c2=O)cc1	.	.	0.9	0.69	-2	-1.3	.	.	.
CCCCCNc1ncnc2c(C)[nH]nc12	.	i	.	.	.	4.5	-1	-5	0.0
CC(=O)c1ccc(Nc2c3c(nc4ccccc24)CCCC3)cc1	-11	i	-4.2	0.63	-8	2.8	-35*	-23*	-4.6*
Cc1ccc(NC(=S)NCC23C=CC(O2)C2C(=O)N(c4ccc(C)cc4)C(=O)C23)cc1 (stereo unspecified)	3	i	-0.9	0.7	0	-0.1	5	8	0.4
O=C(CCN1C(=O)/C(=C/c2ccc3c(c2)OCO3)SC1=S)Nc1cccc(C(=O)O)c1	.	i	4.8	0.62	2	0.6	3	7	0.3
O=C(NCCSC1CCCCC1)c1ccccc1	-23	i	3.7	0.69	4	-1.5	-1	-2	-1.3
CC1(CCc2ccc(O)cc2)NC(=O)NC1=O (stereo unspecified)	32	.	-3.3	0.65	2	-1.1	.	.	.
CC(C(=O)N(C)C1CCS(=O)(=O)C1)N1C(=O)/C(=C/c2ccc(F)cc2)SC1=S (stereo unspecified)	-2	i	13	0.67	-9	-2.2	-7	-8	11
CCOc1ccc(CCNC(=O)CS(=O)Cc2nc(-c3ccccc3Cl)oc2C)cc1OCC (stereo unspecified)	99*	i	3.5	0.65	-5	-0.3	-1	0	-0.4
CCN(C(=O)C(C)N1C(=O)/C(=C/c2ccco2)SC1=S)C1CCS(=O)(=O)C1 (stereo unspecified)	-20	i	.	.	-5	-2.3	22	16	16
CCN1CCN(C(=O)CCn2c(=O)c3cccn3c3cccnc32)CC1	-4	i	-1.3	0.71	-1	-0.7	7	9	0.4
CSc1nc(-c2ccc(Cl)cc2)nc(N)c1C#N	0	i	-7.7	0.65	2	3.4	.	.	.

Only UCH37 DUB inh, Beta2AR agonist and rRNA inh HTS RFP (five entries from above):
SMILES,UCH37 DUB inh,Beta2AR agonist,rRNA inh HTS RFP
CCN1CCN(C(=O)CCn2c(=O)c3cccn3c3cccnc32)CC1,-1.3,-1,0.4
O=C(CCN1C(=O)/C(=C/c2ccc3c(c2)OCO3)SC1=S)Nc1cccc(C(=O)O)c1,4.8,2,0.3
COc1ccc(C2C(C(C)=O)=C(O)C(=O)N2CCc2c[nH]c3ccccc23)cc1OC (stereo unspecified),11,2,.
CC(C(=O)N(C)C1CCS(=O)(=O)C1)N1C(=O)/C(=C/c2ccc(F)cc2)SC1=S (stereo unspecified),13,-9,11
CC(=O)c1ccc(Nc2c3c(nc4ccccc24)CCCC3)cc1,-4.2,-8,-4.6*

Next section.
SMILES	ALR inh	FGF22 binding	UCH37 DUB inh	Ecoli growth	Beta2AR agonist	HNF4A DNA FP	rRNA inh HTS	rRNA inh HTS OD600	rRNA inh HTS RFP
COc1ccccc1NS(=O)(=O)c1cc(NC(=O)CNC(=O)c2ccccc2)ccc1C	-1	i	.	.	8	-2.9	-20*	-6.4*	1.2*
N#C/C=C1\n2c(nc3ccccc32)OC12CCCCC2	4	.	4.9	0.73	-1	3.2	.	.	.
O=C(OCCN1C(=O)c2ccccc2C1=O)C1CC(O)CN1S(=O)(=O)c1ccc(Cl)cc1 (stereo unspecified)	-20	i	-1.2	0.69	2	3.4	-6	3	0.8
Cn1c(=O)oc2cc(S(=O)(=O)N3CCc4ccccc43)ccc21	.	i	5.9	0.72	-10	-0.6	1	-5	-4.2
Cc1nc2c(-c3ccc(Cl)cc3)c(C)[nH]n2c(=O)c1Cc1ccccc1	2	i	-9.2	0.67	11	0.6	-52	-77	-18
CCN(CC(=O)Nc1c(F)cccc1F)C(=O)CN(C)S(=O)(=O)c1ccc(F)cc1	.	i	.	.	-3	3.4	5	-2	-1.2
COC(=O)C1=C[C@@H](C(=O)OC)C2C3=C(C(=O)C24CCCCC4)[C@H](C)n2c(=O)n(-c4ccccc4)c(=O)n2[C@@H]3C1 (stereo partly specified)	-8	i	4.9	.	8	-4.9	4	15	-0.5
O=C1C(Cl)=C(NCCN2CCOCC2)C(=O)c2ccccc21	-17	i	17	0.58	6	3.1	14	-13	0.2
COc1ccc(C(=O)NC(=S)N2CCCCC2)cc1	-2	.	1.4	0.63	-1	0.4	.	.	.
CCOc1ccc(NC(=O)CSc2nnc(-c3ccccn3)n2N)cc1	37	.	3.7	0.64	0	-0.6	.	.	.
Cc1ccc(S(=O)(=O)NNC(=S)NCCc2ccccc2)cc1	62	i	4.1	0.68	4	-0.8	0	0	-0.5

This is a subset, so the mix of outcomes need not match the whole.
